PINK1 modulator: A Quantitative High throughput Screen to Identify Chemical Modulators of PINK1 Expression; PINK1 immunofluorescence, high-content cytometry, 24 h; Potency, µM (highest dose often 76.6 µM), for the others: at the highest dose activation (PINK1 increase), actives largely listed as activators; actives 0.2% (n = 410,000); active = well fitted activation curve with a large enough effect; inconclusive = small, poorly fitted or top-dose-only effect; inactive = flat fitted curve, though single readings scatter; cell line not stated here;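 note: potency is the fitted concentration of half-maximal effect; % of control where 0% means no effect; nearly all actives have a fitted effect of over 65% in size; a mitochondrial uncoupler was the plate control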
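Fluorescence from anti-PINK1 antibody, together with nuclear and cell stains, was scanned on a laser-scanning cytometer. Before staining, stable-line cells were incubated 24 hours with compounds at 5 concentrations; primary antibody 12 h at 10 degrees C.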
TRPML1 ag: qHTS for Agonists of the Human Mucolipin Transient Receptor Potential 1 (TRPML1); Mucolipin-1 (Homo sapiens), Q9GZU1; TRPML1-expressing cells, Ca2+ dye fluorescence, FDSS; host cell line not named in the record; reference of the full effect not given here; activation, % (concentration not given with the values); actives 0.12% (n = 410,000); AID 624414, 2012; in the data active = activation above about 50%; inconclusive = about 30% to 50%; inactive = below about 30%; note: 0% is about no effect; the text of the record puts the active cut at 80%
Target sequence (Q9GZU1 whole entry, looked up): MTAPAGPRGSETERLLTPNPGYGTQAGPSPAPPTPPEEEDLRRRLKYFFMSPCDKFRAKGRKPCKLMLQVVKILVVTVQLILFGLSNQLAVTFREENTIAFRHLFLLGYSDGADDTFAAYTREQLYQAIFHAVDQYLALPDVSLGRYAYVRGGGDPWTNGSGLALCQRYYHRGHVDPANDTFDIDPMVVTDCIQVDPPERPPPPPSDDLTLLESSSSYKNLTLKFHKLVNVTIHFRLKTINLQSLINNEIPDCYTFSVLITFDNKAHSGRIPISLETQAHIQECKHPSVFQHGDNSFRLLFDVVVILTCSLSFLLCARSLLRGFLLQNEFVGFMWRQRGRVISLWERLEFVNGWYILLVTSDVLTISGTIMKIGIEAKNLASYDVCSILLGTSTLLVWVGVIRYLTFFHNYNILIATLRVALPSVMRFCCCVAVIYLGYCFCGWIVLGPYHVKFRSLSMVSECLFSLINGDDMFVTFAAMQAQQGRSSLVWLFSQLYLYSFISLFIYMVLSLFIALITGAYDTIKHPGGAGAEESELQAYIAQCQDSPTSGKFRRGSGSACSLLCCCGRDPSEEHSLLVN
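Cells: TRPML1-DL, 1X Tet inducer, ~16 h at 37 degrees C/5% CO2. Dye: ABD Ca8 no-wash + quencher, 45-90 min RT. Read: 10 s baseline, compound add, 110 s agonist phase; 54-4 EC80 (4uM final), 110 s antagonist phase.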
Numbers without * were called inactive; & = joins results of further samples.

| molecule | PINK1 modulator | TRPML1 ag |
| --- | --- | --- |
| Cc1ccccc1CN1CCC(CNC(=O)c2c(C)oc3ncnc(N4CCCCC4)c23)CC1 | 0.8% | -0.8 |
| COc1ccc(/C=C/c2ccnc3ccccc23)cc1 | 6.3% | -0.4 |
| COc1ccc2c(c1)c(CC(=O)Nc1cccc(F)c1C)c(C)n2C(=O)c1ccc(Cl)cc1 | 3.4% | 1.4 |
| C[N+](C)(C)c1ccc(/C=C/c2ccnc3ccccc23)cc1 | 31.6µM* | -0.4 |
| O=C(NCCCN1CCN(c2ccc(F)cc2)CC1)Nc1ccc(Cl)cc1 | 4.9% | -0.1 |
| Cc1cc(C)cc(NS(=O)(=O)c2ccc3[nH]cc(C(=O)N4CCCCC4)c(=O)c3c2)c1 | 0.5% | 1.5 |
| O=C(Nc1cccc(Cl)c1)c1cc2c(=O)[nH]c3ccccc3c2s1 | -1.1% | 1.7 |
| Cc1cc(C)c2oc(C(=O)Nc3c(C(=O)c4ccccc4)oc4ccccc34)cc(=O)c2c1 | 2.6% | 4.0 |
| CCOc1ccc(C(=O)Nc2c(C(=O)Nc3ccccc3OC)oc3ccccc23)cc1OCC | -1.0% | 1.1 |
| COc1ccc(OC)c(-n2cnc3cc(C(=O)NC4CCCC4)ccc32)c1 | 1.8% | -0.2 |
| Cc1ccc(NC(=O)C2CCN(S(=O)(=O)c3cccc4nonc34)CC2)cc1C | 13.4% | 0.3 |
| COc1ccc(CCNC(=O)CSc2nc3nc(C)c(Cc4ccc(C)cc4)c(C)n3n2)cc1OC | -0.1% | 1.7 |
| Cc1cccc2sc(N(Cc3cccnc3)C(=O)CCc3ccccc3)nc12 | 9.1% | 4.7 |
| COc1cc(Cl)c(NC(=O)c2cc(CN3CCCC3)on2)c(OC)c1 | 3.1% | -0.4 |
| Cc1ccc(CCNC(=O)c2cc(Nc3ccc(C)c(C)c3)nc3ccccc23)cc1 | 7.3% | 4.0 |
| CCc1ccc(-c2nc3cc(NC(=O)c4cc5ccccc5cc4OC)ccc3o2)cc1 | 0.5% | -0.1 |
| Cc1ccc(-c2cc(C(=O)Nc3cc([N+](=O)[O-])ccc3C)no2)cc1F | -0.2% | -0.3 |
| CCOC(=O)CSc1nc2cc3c(cc2c(=O)n1CCCCCC(=O)NCc1ccc(OC)cc1)OCO3 | 2.1% | 2.7 |
| Cc1nn(S(=O)(=O)c2ccc(F)cc2)c(C)c1S(=O)(=O)N1CCC(C)CC1 | 0.2% | -0.4 |
| COC(=O)c1cc(NC(=O)Nc2ccc3snnc3c2)cc(C(=O)OC)c1 | -3.1% | 0.8 |
| Cc1cc(=O)n(CC(=O)Nc2ccc(Cl)c(Cl)c2)c(-n2nc(C)cc2C)n1 | -2.1% | 3.1 |
| CC(Sc1oc(-c2ccco2)nc1S(=O)(=O)c1ccc(Br)cc1)c1ccccc1 (stereo not drawn) | 1.5% | -0.3 |
| COc1cccc(CNC(=O)Cc2c(C)c3c(cc(C)c4c(C)coc43)oc2=O)c1 | -1.2% | -0.4 |
| COc1ccc(C2CC(=O)c3c(C)nc(N4CCN(C=O)CC4)nc3C2)c(OC)c1 (stereo not drawn) | 9.6% | 3.3 |
| COc1cc(NC(=O)c2c(C)oc3ncnc(N4CCCCC4)c23)cc(OC)c1 | 15.2% | 2.1 |
| Cc1cccc(NC(=O)CSc2nnc(CNC(=O)c3c(F)cccc3Cl)o2)c1C | -0.8% | -1.1 |
| COc1ccc(N2C(=O)CS(=O)(=O)C23C(=O)N(Cc2ccccc2F)c2ccccc23)cc1Cl (stereo not drawn) | -4.5% | 0.8 |
| COc1ccc(Cn2c(C(=O)O)c(CNCc3ccco3)c3ccc(C)cc32)cc1 | 2.1% | 4.4 |
| CCOc1ccc(-c2nonc2NC(=O)c2oc3cc(C)c(C)cc3c2C)cc1OCC | 0.6% | 0.3 |
| COc1ccc(NC(=O)C(=O)NCc2ccco2)cc1 | 2.8% | -0.4 |
| COc1ccc(-c2noc(N(c3nc(-c4ccc(OC)c(OC)c4)no3)c3ccccc3OC)n2)cc1OC | 0.7% | -0.2 |
| CCOC(=O)c1c(NC(=O)CSc2cn(CCNC(=O)c3ccc(OC)cc3)c3ccccc23)sc2c1CCCC2 | 1.1% | 0.7 |
| Cc1ccc(NC(=O)c2nc(S(C)(=O)=O)ncc2N(Cc2cccc(F)c2)Cc2ccco2)cc1C | 0.2% | 3.2 |
| Cc1c(C(=O)Nc2ccc(F)c(C(F)(F)F)c2)sc2nc(-c3ccccc3)cn12 | 1.5% | 1.1 |
| O=C(Nc1nnc(S(=O)(=O)N2CCc3ccccc32)s1)c1ccccc1 | -0.8% | 6.5 |
| CCN(Cc1ccccc1)C(=O)C(CC(C)C)NS(=O)(=O)c1ccc2c(c1)CCN2C(C)=O (stereo not drawn) | 0.9% | -1.1 |
| COc1ccc(OC)c(C(=O)CN2C(=O)N(c3ccc(C)cc3)S(=O)(=O)c3ccccc32)c1 | 4.0% | 0.1 |
| CCOc1ccc(NC(=O)CSC2=Nc3ccccc3C3=NC(CC(=O)NCc4ccc5c(c4)OCO5)C(=O)N23)cc1 (stereo not drawn) | 2.2% | -0.1 |
| Cc1cc(C)c2c(=O)c3c(oc2c1)C(=O)N(Cc1ccco1)C3c1ccccc1F (stereo not drawn) | 1.6% | 1.5 |
| COc1ccc(OC)c(NC(=O)CSC2=Nc3ccccc3C3=NC(CCC(=O)NCCc4ccccc4)C(=O)N23)c1 (stereo not drawn) | 0.4% | 1.5 |
| Cc1cccc(CSc2nc3cc(C(=O)NC4CCCC4)ccc3c(=O)n2Cc2ccccc2)c1 | 1.2% | -0.7 |
| COCCCNC(=O)CSc1nc(-c2ccc(OC)cc2)[nH]c1-c1ccc(OC)cc1 | -0.7% | 1.3 |
| Nc1nc(NCc2ccccc2)c2[nH]cnc2n1 | -0.1%&0.3% | -0.7&-0.4 |
| COc1cc(OC)c(NS(=O)(=O)c2cc(-c3cnc(C)o3)ccc2OC)cc1Cl | 5.8% | 0.3 |
| COc1ccc(S(=O)(=O)Nc2cc3c(cc2N2CCOCC2)n(C)c(=O)n3C)cc1 | 1.6% | -1.5 |
| CCn1c(SCc2ccccc2Cl)nc(=O)c2c(C(=O)OC)cc(C3CC3)nc21 | 0.2% | 0.9 |
| O=S(=O)(c1cccc(Cl)c1)N1CCN(c2nc(-c3cccs3)nc3ccccc23)CC1 | -0.1%&0.3% | -0.4&-0.5 |
| COc1cccc(CNC(=O)c2cnc3c(-c4ccc(F)cc4)c(C)nn3c2C)c1 | 2.4% | 0.8 |
| Cc1cc(Br)ccc1NC(=O)c1cn(C2CCCC2)c(=O)c2c1c1ccccc1n2C | 0.1% | -1.2 |
| CCCCNc1nc(Oc2ccc(=O)n(-c3ccccc3)n2)nc(N(C)C)n1 | 2.0% | 1.8 |

(continued)
| molecule | PINK1 modulator | TRPML1 ag |
| --- | --- | --- |
| CCOc1ccc(C(=O)N2CCC(c3nc(-c4ccc(S(=O)(=O)N5CCCC5)cc4)no3)CC2)cc1 | 0.6% | 0.1 |
| CCOc1ccc(CNS(=O)(=O)c2ccc(-c3coc(C)n3)cc2)cc1OC | -1.0% | 0.8 |
| Cc1cc(Nc2cccc(Cl)c2C)n2nc(Cc3ccccc3)nc2n1 | 2.2% | 0.1 |
| O=[N+]([O-])c1cc(Cl)ccc1Nc1nc(Nc2ccc(Cl)cc2[N+](=O)[O-])nc(N2CCOCC2)n1 | 0.2% | -1.1 |
| Cc1ccc2nc(-c3ccccc3O)c(Nc3ccccc3C)n2c1 | 3.8% | 12.7 |
| COCCCNC(=O)c1cnc2c(-c3ccc(F)cc3)c(C)nn2c1C | 3.4% | -0.5 |
| Cc1ccc2c(=O)cc(C(=O)Nc3c(C(=O)c4ccccc4)oc4ccccc34)oc2c1C | 4.6% | 1.9 |
| COCCN(CCOC)S(=O)(=O)c1ccc(C(=O)Nc2sc3c(c2C(=O)OC)CCN(C)C3)cc1 | -6.1% | 0.3 |
| COc1ccc(CCNC(=O)c2cnn(-c3cccc(C)c3)c2C2CCN(C(=O)OC(C)(C)C)CC2)cc1OC | 0.2% | 0.7 |
| Cc1ccc(Cl)cc1NC(=O)COC(=O)CC(C)(C)CC1=NS(=O)(=O)c2ccccc2N1 | 2.5% | 0.8 |
| Cc1nc2ccn(Cc3ccco3)c(=O)c2cc1C(=O)N1CCN(c2ccccc2F)CC1 | 5.2% | 0.0 |
| CCN(CC)C(=O)c1sc2c(c1C)c(=O)n(Cc1ccccc1)c(=O)n2Cc1cc(C)ccc1C | 4.5% | 1.0 |
| Cc1ccc(N(Cc2cccs2)C(=O)COc2cccc(C)c2)cc1 | 9.0% | 4.5 |
| Cc1ccc(C)c(N2CCN(C(=O)c3ccc(-c4nc(COc5ccccc5)c(C)o4)cc3)CC2)c1 | 1.4% | 0.2 |
| CCCOc1ccccc1C(=O)N1CCCCC1CCN1CCCCC1 (stereo not drawn) | -0.6% | 1.6 |
| COCCNC(=O)c1cnn(-c2ccc(C)cc2C)c1C1CCN(C(=O)OC(C)(C)C)CC1 | -0.2% | 1.9 |
| CCCC(=O)NC1CC(=O)N(c2ccc3c(c2)OCCO3)C1 (stereo not drawn) | -0.6% | 0.2 |
| CCOc1ccc(CCNS(=O)(=O)c2cc(Br)cc3c2N(C(C)=O)CC3)cc1OCC | 2.2% | 3.8 |
| CCCCC(Sc1nc2cc3c(cc2c(=O)n1CCCC(=O)NCc1ccc2c(c1)OCO2)OCO3)C(=O)OCC (stereo not drawn) | -0.4% | 3.6 |
| Cc1cc(C)cc(-n2c(SCC(=O)NCc3ccc(F)cc3)nc3c([nH]c4ccccc43)c2=O)c1 | -5.3% | 2.7 |
| COc1ccc(C(=O)c2c(N)c(-c3nc(-c4ccccc4)cs3)c3ccccn23)cc1 | 2.4% | 2.5 |
| COc1ccc(NC(=O)CN(C)S(=O)(=O)c2ccc3nc(C)sc3c2)cc1 | 0.5% | 0.7 |
| CC1=C(c2ccc(C)c(C)c2)S(=O)(=O)NC1=NCc1ccccc1Cl | 12.5% | 0.8 |
| Cn1nc(C(=O)N2CCN(c3ccc(F)cc3)CC2)c2c1-c1ccccc1SC2 | -0.4% | 2.4 |
| COc1cc2c(cc1OC)C(COc1ccccc1OC)N(C(=O)COc1ccc(Cl)cc1)CC2 (stereo not drawn) | -2.1% | 2.1 |

(continued)
canonical_smiles	PINK1 modulator	TRPML1 ag
CCOc1ccc2oc(=O)cc(CN3CCN(C(=O)c4cccc(F)c4)CC3)c2c1	0.8%	0.9
CCC(=O)Nc1ccccc1-c1nc2ccccc2n(CC(=O)c2ccc(C)c(C)c2)c1=O	2.7%	0.5
Cc1cccc(N(C)c2nc3ccc(C)cc3n3nnnc23)c1	3.2%	-0.1
N#Cc1c(-n2ncnc2-c2ccc(Br)cc2)sc2c1CCCCC2	3.7%	-0.6
Cc1cccc(C)c1Nc1c(-c2ccsc2)nc2cccc(C)n12	-0.5%	7.3
CCOc1ccccc1CNC(=O)c1ccc(CS(=O)Cc2cccc(Cl)c2)o1 (stereo not drawn)	1.1%	-0.4
Cc1ccc(Cl)cc1N1CCN(S(=O)(=O)c2ccc(-c3cnc(C4CC4)o3)cc2)CC1	5.8%	-0.1
COc1ccc(NC(=O)c2ccc(-c3cccc(Cl)c3C)o2)cc1	2.2%	1.1
CCOc1ccc(C(=O)Nc2cccc(C(=O)OCc3cc(=O)n4nc(C5CC5)sc4n3)c2)cc1	-0.7%	-1.1
COc1cc(-c2nnc(SCC(=O)NCc3ccccc3Cl)o2)cc(OC)c1OC	-0.2%	0.4
O=C(NC1CCCC1)c1ccc(CSc2nc3cccnc3n2Cc2ccc(F)cc2)cc1	0.7%	0.6
COc1ccc(CCN2C(=O)c3[nH]nc(-c4ccccc4O)c3C2c2cccc(OC)c2)cc1 (stereo not drawn)	13.2%	3.8
CCN(CC)CCN1C(=O)c2ccccc2NC1c1ccc(OC)c(COc2ccc(NC(C)=O)cc2)c1 (stereo not drawn)	0.5%	-0.7
CCOc1ccccc1C(=O)N1CCc2cc(OC)c(OC)cc2C1COc1ccc2c(C)cc(=O)oc2c1 (stereo not drawn)	-1.6%	-0.4
CCOC(=O)c1c(C)oc2ccc(N(C(=O)c3ccncc3)S(=O)(=O)c3ccc(F)cc3C)cc12	-2.0%	1.7
CCOCCCNC(=O)C(c1ccc(Cl)cc1)N(Cc1ccc2c(c1)OCO2)C(=O)c1ccc(NC(C)=O)cc1 (stereo not drawn)	-0.1%	0.8
CC(=O)N1CCc2cc(S(=O)(=O)NC(Cc3ccccc3)C(=O)NCc3ccccc3)ccc21 (stereo not drawn)	-0.3%	-1.1
CCN(CC)c1ccc(/C=C/c2cc(Cl)nc3ccccc23)cc1	-0.1%	14.0
C=C1C=C(C)n2ncc(C(=O)Nc3cccc(C(=O)Nc4cccc(C(F)(F)F)c4)c3)c2N1	-0.1%	-0.1

Compound activity: PubChem BioAssay, National Center for Advancing Translational Sciences (NCATS)

The list is partial; the hit share may differ from the screen's.
